Bioassay records deposited in PubChem BioAssay by National Center for Advancing Translational Sciences (NCATS).
LMNA splice mod = LMNA splicing modulation; AID 1487; Potency, µM (doses to about 46.1 µM), without a hit: at the highest dose ratio change, negative = inhibition, most hits filed as inhibitors; hit rate 0.01% among 200,000; HeLa LMNA splicing GFP/RFP minigene ratio, 48 h; active means well fitted inhibition curve with a large enough effect in the signal ratio, with a control signal flat, not every such curve was filed as active; inconclusive means small, poorly fitted or top-dose-only effect, or effect the other way, or a change in a side signal; the % refers to the signal ratio; further: potency means the concentration at half of the fitted maximal effect; on the % scale 0 is the no-effect control and ±100 the full control effect
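Read-out is the ratio of GFP to DsRed2 object intensity, acquired by 488 nm laser-scanning cytometry on HeLa lamin A-EGFP minigene reporter cells. Compound incubation 48 hrs at 37 °C in Opti-MEM with 2% FBS; DMSO 0.5% final.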
GLA spleen mod = inhibits or activates alpha-galactosidase in human spleen homogenate. P06280. human spleen homogenate, 4MU-alpha-Gal fluorescence, 40 min. Potency, µM (doses to about 80 µM), without a hit: top-dose activity change, negative = inhibition, most hits filed as inhibitors. hit rate 0.008% among 240,000;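 further: potency means the concentration at half of the fitted maximal effect; 0% = enzyme with vehicle and -100% = no enzyme basal signal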
Target sequence (P06280 32-429 limits assumed): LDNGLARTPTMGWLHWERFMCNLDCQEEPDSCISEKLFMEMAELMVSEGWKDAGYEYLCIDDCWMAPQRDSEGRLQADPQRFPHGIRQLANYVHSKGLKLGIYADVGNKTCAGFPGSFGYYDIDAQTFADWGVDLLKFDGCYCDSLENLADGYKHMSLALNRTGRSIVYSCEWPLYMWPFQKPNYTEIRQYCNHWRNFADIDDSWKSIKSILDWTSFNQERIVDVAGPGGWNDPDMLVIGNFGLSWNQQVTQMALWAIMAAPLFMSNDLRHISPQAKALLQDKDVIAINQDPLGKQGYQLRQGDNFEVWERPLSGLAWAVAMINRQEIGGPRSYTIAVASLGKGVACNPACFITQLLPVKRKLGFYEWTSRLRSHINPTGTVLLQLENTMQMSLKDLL
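Spleen homogenate 1 ug + cpd (titration) + 4-MU-alpha-D-galactopyranoside 1 mM; 37C 40 min; 50 mM citrate/phosphate pH 5.0, 0.01% Tween-20; stop pH 10; fluorescence 365/440; AC50 via Hill.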
Epigenetic reg = regulators of epigenetic silencing causing reporter derepression in mouse cells | AID 1865 | murine LDR cells, GFP reporter derepression, 30 h | hit rate 0.2% among 280,000 | Potency, µM (titrated, usually from 53.9 µM), inactives show at the highest dose GFP activation, hits mostly activators; further: potency means the concentration at half of the fitted maximal effect; % of control where 0% means no effect; nearly all actives have a fitted effect of over 60% in size
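Murine LDR cells bearing a silenced CMV-driven GFP reporter were exposed to compound for 30 h at 37 C. After PBS washes, GFP-positive cells (20-120 um objects) counted by laser-scanning microplate cytometry.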
IMPase Li inh = cell-permeable IMPase inhibitors with lithium potentiation; AID 1457; Potency, µM (highest dose often 59.4 µM), inactives show top-dose activity, negative = IMPase inhibition, most hits filed as inhibitors; hit rate 0.35% among 210,000; CHO-M1 cells, IP1 TR-FRET (IP-One), carbachol + lithium;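 further: IP1 builds up when IMPase is blocked and the TR-FRET signal falls; potency means the concentration at half of the fitted maximal effect; plate controls were basal vehicle for no effect and high inhibitor control for full effect; nearly all actives have a fitted effect of over 50% in size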
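IP1 accumulation measured by competitive TR-FRET in lysed CHO-M1 cells after 30 min compound exposure at 37C, with a small lithium addition to potentiate weak responses. Hill-equation AC50 from ratio and donor-channel data.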
KinaseGlo FLuc = Kinase-Glo luciferase inhibition (counter-screen); Q27757; Kinase-Glo luciferase, ATP luminescence, 8 min; Potency, µM (series often up to 38.3 µM), without a hit: at the highest dose activity change, negative = inhibition, usual class: inhibitors; hit rate 0.28% among 200,000; AID 1379; further: potency means the concentration at half of the fitted maximal effect; on the % scale 0 is the no-effect control and ±100 the full control effect; nearly all actives have a fitted effect of over 60% in size
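Recombinant Kinase-Glo luciferase, 10 uM ATP (linear range), luciferin; imidazole pH 7.2 / KCl / MgCl2 / Tween / BSA buffer; 8 min RT; luminescence.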
CBFb-RUNX1 inh = CBF-beta/RUNX1 interaction disruption; AlphaScreen CBFb-His/RUNX1-biotin binding, biochemical; Potency, µM (doses to about 59.8 µM), inactives show at the highest dose activity, negative = inhibition, hits mostly inhibitors; 230,000 tested, under 10 active; AID 1477; further: % of control where 0% means no effect
Target sequence (Q01196 whole entry, looked up): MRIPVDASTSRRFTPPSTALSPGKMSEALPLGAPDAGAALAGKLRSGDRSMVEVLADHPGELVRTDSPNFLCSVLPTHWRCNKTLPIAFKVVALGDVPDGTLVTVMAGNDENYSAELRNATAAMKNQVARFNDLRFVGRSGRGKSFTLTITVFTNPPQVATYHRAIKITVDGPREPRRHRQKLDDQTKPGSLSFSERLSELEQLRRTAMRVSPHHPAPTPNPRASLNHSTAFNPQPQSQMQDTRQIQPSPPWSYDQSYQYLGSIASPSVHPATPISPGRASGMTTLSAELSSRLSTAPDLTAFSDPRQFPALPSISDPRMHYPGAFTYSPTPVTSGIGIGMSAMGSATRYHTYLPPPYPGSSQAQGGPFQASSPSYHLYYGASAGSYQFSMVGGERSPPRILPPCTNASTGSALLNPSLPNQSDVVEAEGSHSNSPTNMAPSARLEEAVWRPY
Target sequence (Q13951 whole entry, looked up): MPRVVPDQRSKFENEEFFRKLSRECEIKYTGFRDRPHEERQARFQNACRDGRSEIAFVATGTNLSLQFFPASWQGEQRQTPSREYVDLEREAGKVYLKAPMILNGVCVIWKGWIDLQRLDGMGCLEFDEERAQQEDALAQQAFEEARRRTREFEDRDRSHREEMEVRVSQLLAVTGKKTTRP
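Bead-based AlphaScreen assay; binding partners His-tagged CBF-beta and biotinylated RUNX1 at 30 nM each. Compound exposure 15 min after a 20-min protein preincubation; bead step 90 min; all steps at room temperature.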
Active calls of the source: *; ? = inconclusive; nt = no result given; & = joins results of further samples; [ ] = dose if it differs, or a comment. Unless noted, the call rests on the fitted dose curve; in most records, active means well fitted curve in the direction sought with a large enough effect; inconclusive means small, poorly fitted or top-dose-only effect, or another doubt; inactive means no such curve, though single readings can be large; an effect the other way counts as inactive or inconclusive.

Molecule,LMNA splice mod,GLA spleen mod,Epigenetic reg,IMPase Li inh,KinaseGlo FLuc,CBFb-RUNX1 inh
Cc1ccc(NC(=O)OCC(F)(F)C(F)F)cc1NC(=O)OCC(F)(F)C(F)F,?,-6%,-1.4%,7%[38.3 µM],1%,4%
CC(=O)C1=C(O)C(=O)N(c2ccc(Br)cn2)C1c1ccccc1F (centres undefined),-4%,-7%,-2.2%,11µM*,1%,1%
CCOC(=O)C1=C(O)/C(=C/c2ccccn2)SC1=Nc1ccc(Cl)cc1,?,1%,4.2%,6%,-1%,-4%
O=C(NC(=S)Nc1ccc2oc(-c3ccncc3)nc2c1)c1ccccc1F,nt,6%,2.2%,5.6µM*,0%,-3%
Cc1nc(-c2ccncc2)sc1C(=O)Nc1ccc(Br)cc1,3%[46 µM],-8%,4.0%,9%,1%,4%
CC1=C(C(=O)Nc2ccccc2)C(c2cccnc2)n2nc(-c3cccnc3)nc2N1 (centres undefined),7%,6%,1.0%,2%[38.3 µM],-5%,-1%
CC1CC(C)(C)N(C(=O)CSc2ccc(-c3ccc(F)cc3)nn2)c2ccccc21 (centres undefined),?,2%,-3.2%,8%[38.3 µM],-1%,6%
Cc1nn2c(N3CCN(c4ccccn4)CC3)cc(C(C)C)nc2c1-c1ccccc1,5%,-11%,0.0%,23%[38.3 µM],2%,4%
COc1ccc(CNCc2cccc(Oc3ccccc3)c2)cc1,-3%[46 µM],-10%,-1.1%,12%,4%,-26%
O=c1c2ccccc2c(-c2ccc(Br)cc2)nn1Cc1ccccc1,-3%,0%,-0.3%,18%[38.3 µM],-3%,-2%
Cn1c(C(=O)NCC2CCCO2)cc2c(=O)n3ccccc3nc21 (centres undefined),-10%,?,-1.1%,8.9µM*,3%,-9%
CCN(CC)S(=O)(=O)c1ccc2c(c1)nc(SCC(=O)NC1CC1)n2-c1ccccc1OC,4%,-3%,-1.2%,9%[38.3 µM],1%,6%
Cc1nc2c(sc3nc(N4CCOCC4)c4c(c32)CC(C)(C)OC4)c(-c2ccc(Cl)cc2)c1C(=O)O,nt,-2%,1.2%,nt,nt,8%
Cc1ccc(C(=O)NNC(=O)C2CCN(c3nccc(C)n3)CC2)cc1,6%[0.0737 µM],4%,-0.9%,3%[38.3 µM],-2%,0%
COC(=O)CCc1sc(Nc2ccccc2)nc1-c1ccc(OC)cc1,-6%,1%,1.0%,12%,2%,-13%
COCCNC(=S)N1CCc2cc(OC)c(OC)cc2C1COc1cc(C)cc(C)c1 (centres undefined),?,-1%,0.0%,1%,1%,-6%
O=C(Nc1ccn(Cc2ccccc2F)n1)c1ccc(COc2cccc(Br)c2)cc1,?,2%,-0.7%,17%[38.3 µM],18%,11%
CCOC(=O)N1CCC2(CC1)C(C#N)=C(N)Oc1c2c(C)nn1-c1cccc(Cl)c1,-17%,-2%,1.1%,30%[38.3 µM],3%,-9%
CCC(=O)N(CCC(c1ccco1)C(C)C)Cc1ccccc1 (centres undefined),nt,2%,-1.3%,nt,nt,12%
FC(F)(F)c1nnc2c(Sc3ccccc3)nc3ccc(Cl)cc3n12,?,-8%,0.8%,-16%[38.3 µM],-4%,3%
O=C(/C=C/c1ccccc1)NC(NC(=S)Nc1ccc(Cl)cc1)C(Cl)(Cl)Cl (centres undefined),?,-1%,8.4%,15%[38.3 µM],8%,5%
CCOC(=O)C1=NN(c2cccc(Cl)c2)C2=NC(C)=C(C(=O)OC)C(c3cccs3)N12 (centres undefined),-3%,2%,-2.0%,5%,0%,5%
Cc1sc2ncnc(Sc3ccccc3C(=O)O)c2c1C,-13%[46 µM],7%,-1.1%,4.5µM*,4%,7%
Cc1ccc(OCC(O)CNS(=O)(=O)c2ccccc2C(=O)O)cc1 (centres undefined),13%,-8%,-2.7%,27%[38.3 µM],-4%,2%
CCOC(=O)CCC(=O)Nc1ccc(S(=O)(=O)N2CCC(C)CC2)cc1,-1%,2%,-1.0%,3%,2%,4%

Looked up by structure from the list above, two records:
Molecule,LMNA splice mod,GLA spleen mod,Epigenetic reg,IMPase Li inh,KinaseGlo FLuc,CBFb-RUNX1 inh
Cc1ccc(OCC(O)CNS(=O)(=O)c2ccccc2C(=O)O)cc1 (centres undefined),13%,-8%,-2.7%,27%[38.3 µM],-4%,2%
Cc1sc2ncnc(Sc3ccccc3C(=O)O)c2c1C,-13%[46 µM],7%,-1.1%,4.5µM*,4%,7%

Further records
Molecule,LMNA splice mod,GLA spleen mod,Epigenetic reg,IMPase Li inh,KinaseGlo FLuc,CBFb-RUNX1 inh
C=CCNC(=O)C1CC(c2cccc(OC)c2)=NO1 (centres undefined),1%,-5%,-1.1%,-10%[38.3 µM],5%,3%
COc1ccc(-c2oc3ncnc(NCCN4CCOCC4)c3c2-c2ccc(OC)cc2)cc1,?,0%,-1.3%,4%[38.3 µM],0%,-4%
COc1ccccc1Cn1c(-c2ccccc2OC)nc2ccccc21,?,-10%,2.6%,27%[38.3 µM],0%,-28%
CCCCC1CCC(C(=O)Nc2ccc(S(=O)(=O)Nc3nccs3)cc2)CC1 (centres undefined),-2%,3%,-0.7%,20%[38.3 µM],-3%,-8%
COc1ccc(-n2c(=S)[nH]c3sc(-c4ccccc4)cc3c2=O)c(OC)c1,nt,1%,0.1%,nt,nt,4%
CC(C)Oc1c(Br)cc(Br)cc1/C=N/NC(N)=S,?,6%,-8.3%,5%,6%,0%
COc1ccc(-c2ccc(C(C)=O)cc2)cc1[C@H]1[C@H]2C=CC[C@@H](C)[C@@H]2C(=O)N1Cc1ccccc1,nt,-11%,-2.3%,nt,nt,5%
COC(=O)C1=C(C)N(c2ccc(C)c(C)c2)/C(=C/c2cccs2)C1=O,-1%,7%,0.2%,8%[38.3 µM],-7%,4%
CCc1cc2cc(C)cc(C)c2nc1SCC(=O)N1CCCC1,-16%,2%,9.4%,0%,-3%,1%
COc1cc(-c2nc3ccccn3c2NCC2CCCO2)ccc1O (centres undefined),-15%,8%,-0.7%,9%[38.3 µM],-2%,-1%
COC(=O)Sc1nc(N2CCOCC2)c2c(c1C#N)CC(C)(C)OC2,-5%,10%,6.6%,nt,nt,7%
COC(=O)CSc1nc2c(c(-c3ccco3)c1C#N)CCCC2,-1%,-2%,-1.9%,-18%[38.3 µM],8%,-4%
C/C(CC(=O)Nc1c(C)cc(C)cc1C)=N\NC(=O)OC(C)(C)C,-6%,10%,2.2%,-2%,-3%,0%
CC(C)Sc1nc2sc3c(c2c2nnc(SCC(=O)NCc4ccco4)n12)CCCC3,-8%,-6%,-0.9%,3%,4%,3%
O=C(COc1cccc(NC(=O)c2ccccc2)c1)c1ccccc1,11%[46 µM],7%,-1.0%,12%,1%,11%
CCOC(=O)c1ccc(NC(=O)COc2cc(=O)n(CC)c3ccccc23)cc1,2%,7%,-3.2%,-2%[38.3 µM],-1%,-1%
CC(C)c1nc(N2CCN(C(=O)c3ccccc3)CC2)c(C#N)c2c1COC(C)(C)C2,-2%,6%,-2.1%,26%[38.3 µM],3%,4%
CCOC(=O)c1cc(C)sc1NC(=S)Nc1ccccc1,2%,-5%,0.0%,25%[38.3 µM],4%,4%
CCOC(=O)C1=C(C)Nc2nnnn2C1c1cccnc1 (centres undefined),3%,5%,0.0%,-6%[38.3 µM],1%,0%
COc1cccc(-c2nnc3sc(-c4ccc(Cl)cc4)nn23)c1,-7%,9%,-4.1%,nt,nt,8%
COc1ccccc1-n1ccnc1SCC(=O)NC(C)(C)C,1%[46 µM],1%,-1.2%,-1%,-3%,3%
CCOC(=O)N1CCC(NC(=O)c2ccc3c(c2)N(Cc2ccc(F)cc2)CCS3)CC1,?,13%,0.8%,19%[38.3 µM],-1%,7%
Fc1ccc(C2c3cccn3CCN2C(=S)Nc2cccc(Br)c2)cc1 (centres undefined),nt,10%,0.2%,12%,1%,0%
O=C(CCC(=O)c1cccs1)NC(c1ccccc1)c1ccccc1,7%[0.0737 µM],9%,-0.2%,-3%[38.3 µM],-1%,4%
COC(=O)c1ccccc1NC(=O)CN1CCC(NC(=O)c2ccccc2C)CC1,?,0%,-3.2%,4%[38.3 µM],0%,-6%

The listing continues.
Molecule,LMNA splice mod,GLA spleen mod,Epigenetic reg,IMPase Li inh,KinaseGlo FLuc,CBFb-RUNX1 inh
COC(=O)c1cc2ccsc2n1Cc1ccccc1F,?,2%,-1.1%,-5%,0%,-5%
S=C(Nc1ccccc1)N1CCn2c1nc1ccccc12,?,-1%,2.7%,-7%[38.3 µM],0%,1%
CCCCCCn1c(N2CCC(C)CC2)nc2c1c(=O)[nH]c(=O)n2C,6%,2%,-1.9%,5%[38.3 µM],-10%,0%
COc1cccc(CNn2c(-c3cccc(C)c3)nc3ccccc3c2=O)c1,?,-1%,0.0%,41%[activator][38.3 µM],-1%,19%
O=C(/C=C/c1cccc([N+](=O)[O-])c1)c1cccs1,?,-2%,3.0%,17%,-5%,-9%
COC(=O)C1=NN(c2cccc3ccccc23)C2C(=O)N(c3ccccc3OC)C(=O)C12 (centres undefined),nt,4%,1.1%,nt,nt,3%
Oc1ccccc1-c1nc(NCC2CCCO2)c2ccccc2n1 (centres undefined),?,3%,0.0%,24%[38.3 µM],-2%,11%
C[C@]12C[C@H](O)[C@H]3[C@@H](CCC4=CC(=O)CC[C@@]43C)[C@@H]1CC[C@@H]2C(=O)CO,-5%,2%&6%,-1.7%,-3%&-24%,2%,4%
CCCCCCN=CC1=C(O)C(C(=O)OC)C(C)(C)CC1=O (centres undefined),9%,15%,-0.2%,6%[38.3 µM],-7%,-4%
COc1ccc2cc3cc(C(=O)NCCCN4CCc5ccccc5C4)sc3nc2c1,-24%,13%,0.0%,10%,-2%,1%
CCCCc1c(C)c(C#N)c2nc3ccccc3n2c1Cl,-3%,3%,?,-2%,2%,4%
CCN(CC)C(=O)CSC1=C(C#N)C(c2cccs2)C=C(C)N1 (centres undefined),-10%,0%,2.4%,?,12%,7%
Cc1oc(-c2ccc(-c3ccccc3)cc2)nc1CN(C)C1CCOC1 (centres undefined),-6%[46 µM],1%,1.2%,7%,-1%,-6%
C=CCN(C(=O)Nc1ccc2oc(C)nc2c1)c1ccccc1,?,-6%,-3.5%,-2%[38.3 µM],-3%,5%
CCc1nc(SCC(=O)NNC(=O)c2ccc(OC)cc2)c2ccccc2n1,7%[46 µM],-4%,-0.3%,8.9µM*,-4%,4%
CC1CCCC(C)N1S(=O)(=O)c1ccc(NC(=O)CCn2cnc3ccccc3c2=O)cc1 (centres undefined),5%,3%,6.8%,-8%[38.3 µM],-1%,9%

Some of the compounds tested; the hit share may differ from the screen's.
